Compound activity (PubChem)
Bead autofluor: compound fluorescence in toxin protease inhibitor counterscreen | 360,000 tested, 3.1% active | compound autofluorescence counterscreen, microsphere flow cytometry; stronger effect = higher value | fluorescence intensity (test concentration not listed);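 active = at least 3 SD above the mean of all compounds, about 16000 in these data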;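 also: 100 nL of 1 mM stock went into each well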
Sa RN4220 lethal: S. aureus RN4220 growth inhibition; OD600, 16 h; inhibition, % (test concentration not listed); 330,000 tested, 0.33% active;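 active = z-score of -3 or lower and OD600 up to 0.18 on both plates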;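 also: plate controls were untreated cells for no effect and reference antibiotic for full effect; stock transfer was 100 nL into about 80 µL; one replicate is shown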
PrP 5UTR inh: suppresses PrP 5' UTR mRNA reporter expression; AID 488862; inhibition, % (test concentration not listed); cell-based PrP 5' UTR mRNA reporter, plate reader; 340,000 tested, 0.35% active;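 active = every replicate at 50% or more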;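 also: 0 = median of the neutral control wells; tested in H4 reporter cells; numbers are from one replicate; inactives centre near -14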
ugtP null kill: kills S. aureus RN4220 lacking UgtP. S. aureus RN4220 ugtP deletion, OD600 growth, 16 h; some inactives read as strong as hits. growth inhibition, % (concentration not given with the values). 330,000 tested, 0.54% active. AID 1259309;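 active = z-score under -3 and OD600 up to 0.15 on both plates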;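 also: plate controls were untreated wells for no effect and antibiotic for full effect; wells of about 80 µL received 100 nL stock; the first replicate is given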
Mtb hypoxia inh: inhibitors of hypoxia-regulated fluorescent reporter in Mycobacterium tuberculosis | M. tuberculosis hypoxia-regulated fluorescent reporter, fluorescence | 300,000 tested, 0.1% active | fluorescence inhibition, % (no concentration beside the values);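 active = 35 to 45% if threefold the growth effect, above 45% if 1.5-fold the growth effect; inactive = the rest, general growth blockers included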;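 also: wells of about 50 µL received 100 nL stock; 0% = vehicle wells and 100% = reference inhibitor wells; whole bacteria with a GFP reporter of the hypoxia response; strong numbers were not always called active; many hits fall short of the cut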
BJeLR lethal: BJeLR cell viability loss. inhibition, % (concentration not given with the values). BJeLR (HRASV12) viability, CellTiter-Glo ATP luminescence, 48 h; reference of the scale not given here. 300,000 tested, 0.17% active. AID 1554;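 active = replicate mean above 50%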;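 also: 50 nL library stock added to about 25 µL; numbers are from one replicate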
Mtb hypoxia inh growth: further read-out of Mtb hypoxia inh, marked with its call; growth inhibition, %; measured here: M. tuberculosis growth (absorbance);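 0% = vehicle and 100% = reference antibiotic; read after six days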
An asterisk follows results filed as active. Compounds were not picked by outcome; 4% or so of the library scored in one or more.

Screening O=C(NCC(c1ccccc1Cl)N1CCCC1)C1CCN(C(=O)Nc2ccccc2)CC1 (stereo unspecified) returned Bead autofluor 4075, Sa RN4220 lethal -2.1, PrP 5UTR inh 8, ugtP null kill -7, Mtb hypoxia inh -5 and Mtb hypoxia inh growth -2.
Screening CCOc1ccccc1CN1CCC(n2nccc2NC(=O)CCc2ccccc2)CC1 returned Bead autofluor 5258, Sa RN4220 lethal -2.1, PrP 5UTR inh -9, ugtP null kill -1, Mtb hypoxia inh -2, BJeLR lethal 5 and Mtb hypoxia inh growth 14.
`Cc1cc(=O)[nH]c(-n2[nH]c(C)cc2=O)n1` gave Bead autofluor 3404, Sa RN4220 lethal 9.6, PrP 5UTR inh -12, ugtP null kill 12 and BJeLR lethal 11.
Screening Cc1ccsc1CNCC(O)c1ccccc1 (stereo unspecified) returned Bead autofluor 3011, Sa RN4220 lethal -0.6, PrP 5UTR inh -8, ugtP null kill 1, Mtb hypoxia inh -2, BJeLR lethal -19 and Mtb hypoxia inh growth -7.
Cc1ccc(SCCNC(=O)CN(c2ccc3c(c2)OCO3)S(C)(=O)=O)cc1 was read as Bead autofluor 2144, Sa RN4220 lethal 1.6, PrP 5UTR inh -1, ugtP null kill 0 and BJeLR lethal 0.
`Cc1cc(=O)oc2cc(OC(C)C(=O)NCCc3ccc(S(N)(=O)=O)cc3)ccc12` (stereo unspecified) gave Bead autofluor 6059, Sa RN4220 lethal 1.6, PrP 5UTR inh -29, ugtP null kill 0, Mtb hypoxia inh 1, BJeLR lethal 5 and Mtb hypoxia inh growth -14.
For COc1cc(NC(=S)NCc2ccco2)cc(OC)c1OC the results were Bead autofluor 2472, Sa RN4220 lethal 1.5, PrP 5UTR inh -15, ugtP null kill 0, Mtb hypoxia inh 8, BJeLR lethal 9 and Mtb hypoxia inh growth -1.
For CC1(C)CC(=O)C(C(c2ccc(Br)cc2)C2C(=O)CC(C)(C)CC2=O)C(=O)C1 the results were Bead autofluor 3905, Sa RN4220 lethal 6.7, PrP 5UTR inh -36, ugtP null kill -1, Mtb hypoxia inh -1, BJeLR lethal 25 and Mtb hypoxia inh growth -1.
Cc1cccn2c(=O)c3cc(C(=O)NCCCn4ccnc4)n(C)c3nc12 was read as Bead autofluor 10442, Sa RN4220 lethal -0.1, PrP 5UTR inh -9, ugtP null kill 7, Mtb hypoxia inh -4, BJeLR lethal -2 and Mtb hypoxia inh growth -5.
`Cc1nn(Cc2ccccc2)c(Cl)c1C(=O)Nc1ccc(OC(F)(F)F)cc1` gave Bead autofluor 7589, Sa RN4220 lethal -1.0, PrP 5UTR inh -23, ugtP null kill -5, Mtb hypoxia inh 7, BJeLR lethal -2 and Mtb hypoxia inh growth -1.

Structural class: those above with a Cl atom
Screening O=C(NCC(c1ccccc1Cl)N1CCCC1)C1CCN(C(=O)Nc2ccccc2)CC1 (stereo unspecified) returned Bead autofluor 4075, Sa RN4220 lethal -2.1, PrP 5UTR inh 8, ugtP null kill -7, Mtb hypoxia inh -5 and Mtb hypoxia inh growth -2.
`Cc1nn(Cc2ccccc2)c(Cl)c1C(=O)Nc1ccc(OC(F)(F)F)cc1` gave Bead autofluor 7589, Sa RN4220 lethal -1.0, PrP 5UTR inh -23, ugtP null kill -5, Mtb hypoxia inh 7, BJeLR lethal -2 and Mtb hypoxia inh growth -1.

(further entries)
`Nc1nc(SCc2ccccn2)c2ncn(C3CCCC3)c2n1` gave Bead autofluor 4249, Sa RN4220 lethal 1.7, PrP 5UTR inh -23, ugtP null kill -2, Mtb hypoxia inh 10 and Mtb hypoxia inh growth 7.
`O=C1c2sc3nc4n(c(=O)c3c2CCC1Br)CCCCC4` (stereo unspecified) gave Bead autofluor 4032, Sa RN4220 lethal 45, PrP 5UTR inh -30, ugtP null kill 1, Mtb hypoxia inh 15, BJeLR lethal 7 and Mtb hypoxia inh growth 23.
`CCC(C)c1ccc(NC(=O)N2CCN(C(=O)C3CCCO3)CC2)cc1` (stereo unspecified) gave Bead autofluor 5886, Sa RN4220 lethal 1.3, PrP 5UTR inh -9, ugtP null kill 2, Mtb hypoxia inh 5, BJeLR lethal -5 and Mtb hypoxia inh growth -10.
For Nc1c(-c2ccccc2)c(CSc2nc3ccccc3[nH]2)nn1-c1cccc(C(=O)O)c1 the results were Bead autofluor 2482, PrP 5UTR inh -10 and BJeLR lethal 4.
O=C(Nc1ccc(Cl)cc1)c1ccc2c(=O)n3c(nc2c1)CCCCC3 was read as Bead autofluor 5535, Sa RN4220 lethal 4.5, PrP 5UTR inh -31, ugtP null kill 6 and BJeLR lethal 5.
For CCN(C(=O)COC(=O)c1ccc(C)c(S(=O)(=O)N2CCOCC2)c1)C1CCS(=O)(=O)C1 (stereo unspecified) the results were Sa RN4220 lethal -1.3, PrP 5UTR inh -15, ugtP null kill -5, Mtb hypoxia inh -2, BJeLR lethal 5 and Mtb hypoxia inh growth 7.
For CC(C(=O)N1CCCC1)N(C)CC(=O)Nc1cccc(F)c1 (stereo unspecified) the results were Bead autofluor 3475, Sa RN4220 lethal 1.7, PrP 5UTR inh -21, ugtP null kill 5, Mtb hypoxia inh 2 and Mtb hypoxia inh growth 9.
For C#CCOCCOCCOCCNc1nc(N2CCN(C(=O)C(CCC(=O)O)n3cc(C(N)C(C)CC)nn3)CC2)nc(N2CCN(C(=O)C(C(C)CC)n3cc(C(N)Cc4ccc(O)cc4)nn3)CC2)n1 (stereo unspecified) the results were Sa RN4220 lethal 3.8, ugtP null kill 0, Mtb hypoxia inh 4 and Mtb hypoxia inh growth 8.
O=C(c1ccc([N+](=O)[O-])s1)N1CCc2ccccc21 was read as Bead autofluor 5300, Sa RN4220 lethal 5.7, PrP 5UTR inh 16, ugtP null kill 9, Mtb hypoxia inh 10, BJeLR lethal 0 and Mtb hypoxia inh growth -1.
Screening CC[C@]12c3[nH]c4ccc(Cl)cc4c3CCN1C(=O)[C@@H](CC(=O)NCCc1ccccn1)C[C@@H]2C(=O)N1CCN(C(=O)C2CC2)CC1 returned Bead autofluor 3608, Sa RN4220 lethal 4.0, PrP 5UTR inh -17, ugtP null kill -1, Mtb hypoxia inh 11 and Mtb hypoxia inh growth 10.
For O=C(CSc1nnc(Cc2cc(=O)[nH]c(=O)[nH]2)n1-c1ccccc1)NCC1CCCO1 (stereo unspecified) the results were Bead autofluor 8673, Sa RN4220 lethal 3.3, PrP 5UTR inh -28, ugtP null kill -3, Mtb hypoxia inh 5, BJeLR lethal 5 and Mtb hypoxia inh growth 16.
For CCn1nc(C(=O)Nc2cccc(C(F)(F)F)c2)c(Cl)c1Cl the results were Bead autofluor 10029, Sa RN4220 lethal 0.9, PrP 5UTR inh -23, ugtP null kill -5, Mtb hypoxia inh -4, BJeLR lethal -4 and Mtb hypoxia inh growth 3.
For NC(N)=NC(N)=Nc1ccc(SC(F)(F)F)cc1 the results were Bead autofluor 2159, Sa RN4220 lethal -3.1, PrP 5UTR inh -13, ugtP null kill 1, Mtb hypoxia inh 5, BJeLR lethal -3 and Mtb hypoxia inh growth 5.
`CCCCn1c(=O)[nH]c(=O)c2c1nc(-c1ccc(C)c([N+](=O)[O-])c1)n2CC` gave Bead autofluor 4430, Sa RN4220 lethal 5.4, PrP 5UTR inh 7, ugtP null kill 0, Mtb hypoxia inh 6, BJeLR lethal -14 and Mtb hypoxia inh growth 13.
O=C(Nc1nccs1)c1cc([N+](=O)[O-])ccc1Cl was read as Bead autofluor 4463, Sa RN4220 lethal 4.4, PrP 5UTR inh -11, ugtP null kill 7, Mtb hypoxia inh 13, BJeLR lethal 31 and Mtb hypoxia inh growth 3.
Screening C/C(=N\Nc1nncc2ccccc12)c1ccc(C(C)(C)C)cc1 returned Bead autofluor 3595, PrP 5UTR inh -51 and BJeLR lethal -6.
`Cc1ccc(N2CC(C(=O)Nc3c(C)n(C)n(-c4ccccc4)c3=O)CC2=O)cc1` (stereo unspecified) gave Bead autofluor 4149, Sa RN4220 lethal 9.4, PrP 5UTR inh -17, ugtP null kill 4, Mtb hypoxia inh 14, BJeLR lethal 9 and Mtb hypoxia inh growth 4.
Screening CC=CC(=O)Nc1cccc(C2=NOC3(C2)CC(C(N)=O)N(C(=O)CCCCC)C3)c1 (stereo unspecified) returned Sa RN4220 lethal 5.1, ugtP null kill 4, Mtb hypoxia inh 4 and Mtb hypoxia inh growth 6.
For COc1cc(/C=N/NC(=O)c2nc(-c3ccccc3)n(-c3ccccc3)n2)ccc1O the results were Bead autofluor 2131, PrP 5UTR inh -13 and BJeLR lethal 14.
CC1(OC(=O)CCc2ccccc2)C(=O)C=C2C=C(c3ccc(C#N)cc3)N(C3CCCC3)C=C2C1=O (stereo unspecified) was read as Bead autofluor 3405, PrP 5UTR inh -38 and BJeLR lethal -5.

Grouped by structure, the compounds so far containing a CF3 group.
`Cc1nn(Cc2ccccc2)c(Cl)c1C(=O)Nc1ccc(OC(F)(F)F)cc1` gave Bead autofluor 7589, Sa RN4220 lethal -1.0, PrP 5UTR inh -23, ugtP null kill -5, Mtb hypoxia inh 7, BJeLR lethal -2 and Mtb hypoxia inh growth -1.
For CCn1nc(C(=O)Nc2cccc(C(F)(F)F)c2)c(Cl)c1Cl the results were Bead autofluor 10029, Sa RN4220 lethal 0.9, PrP 5UTR inh -23, ugtP null kill -5, Mtb hypoxia inh -4, BJeLR lethal -4 and Mtb hypoxia inh growth 3.
For NC(N)=NC(N)=Nc1ccc(SC(F)(F)F)cc1 the results were Bead autofluor 2159, Sa RN4220 lethal -3.1, PrP 5UTR inh -13, ugtP null kill 1, Mtb hypoxia inh 5, BJeLR lethal -3 and Mtb hypoxia inh growth 5.

(further entries)
Screening CC1(c2nnc(-c3ccc(F)cc3)o2)CC(c2ccccc2)=NO1 (stereo unspecified) returned Bead autofluor 3115, Sa RN4220 lethal 5.4, PrP 5UTR inh -21, ugtP null kill 6, Mtb hypoxia inh 25, BJeLR lethal 13 and Mtb hypoxia inh growth 17.
Screening O=C1NC(=O)C(c2cccs2)(c2cccs2)N1 returned Bead autofluor 5191, Sa RN4220 lethal 0.6, PrP 5UTR inh -11, ugtP null kill 9, Mtb hypoxia inh 4, BJeLR lethal 3 and Mtb hypoxia inh growth -2.
`CCOc1cc(C=O)ccc1OCC(=O)NC(C)(C)C` gave Bead autofluor 2235, Sa RN4220 lethal 1.8, PrP 5UTR inh -12, ugtP null kill 8, Mtb hypoxia inh -7, BJeLR lethal -9 and Mtb hypoxia inh growth -6.
`Cc1cc(-c2n[nH]c(=S)n2/N=C/c2c[nH]c3ccccc23)n[nH]1` gave Bead autofluor 5977, PrP 5UTR inh -17 and BJeLR lethal -8.
NS(=O)(=O)c1ccc(NC(=O)CN2C(=O)C3C4C=CC(C4)C3C2=O)cc1 (stereo unspecified) was read as Bead autofluor 4075, Sa RN4220 lethal 3.7, PrP 5UTR inh -35, ugtP null kill 3, Mtb hypoxia inh 7, BJeLR lethal -4 and Mtb hypoxia inh growth 2.
`Fc1ccc2c(c1)C(c1ccc(N3CCOCC3)cc1)=NNC(c1cccs1)=N2` gave Bead autofluor 19055*, Sa RN4220 lethal -1.9, PrP 5UTR inh -19, ugtP null kill -3, Mtb hypoxia inh -2, BJeLR lethal 2 and Mtb hypoxia inh growth 12.
For O=C(COC(=O)c1ccccc1O)NC1CCCc2ccccc21 (stereo unspecified) the results were Bead autofluor 3578, Sa RN4220 lethal 2.5, PrP 5UTR inh -3, ugtP null kill -3, Mtb hypoxia inh 33* and Mtb hypoxia inh growth 65*.
COc1cccc(-c2nc(CS(=O)(=O)c3ccccc3)no2)c1 was read as Bead autofluor 2681, Sa RN4220 lethal 0.3, PrP 5UTR inh -40, ugtP null kill 9 and BJeLR lethal -2.
`O=C(CCCN1C(=O)c2ccccc2C1=O)Nc1ccc(S(=O)(=O)N2CCOCC2)cc1` gave Bead autofluor 24200*, Sa RN4220 lethal 6.2, PrP 5UTR inh 5, ugtP null kill 3, Mtb hypoxia inh 1, BJeLR lethal -7 and Mtb hypoxia inh growth 4.
COCCn1c(SCC(=O)OCc2ccccc2)nc2c1c(=O)[nH]c(=O)n2C was read as Bead autofluor 5763, Sa RN4220 lethal -3.3, PrP 5UTR inh -6, ugtP null kill 2, Mtb hypoxia inh 5, BJeLR lethal 7 and Mtb hypoxia inh growth 2.
For CC(Nc1cc(N2CCOCC2)ccc1[N+](=O)[O-])c1ccccc1 (stereo unspecified) the results were Bead autofluor 2235, Sa RN4220 lethal 1.7, PrP 5UTR inh -14, ugtP null kill 0, Mtb hypoxia inh 10, BJeLR lethal -9 and Mtb hypoxia inh growth 6.
